VDR inhibitor – inhibitors of human vitamin D receptor; P11473; VDR-SRC2-3 peptide fluorescence polarization, 2 h; Potency, µM, without a hit: max response, negative = inhibition, most hits filed as inhibitors; 400,000 compounds, 0.93% hits; active = well fitted inhibition curve with a large enough effect; inconclusive = small, poorly fitted or top-dose-only effect, or another doubt; inactive = no such curve, though single readings can be large or run the other way; also: series mostly up to about 120 µM
Target sequence (P11473 whole entry, looked up): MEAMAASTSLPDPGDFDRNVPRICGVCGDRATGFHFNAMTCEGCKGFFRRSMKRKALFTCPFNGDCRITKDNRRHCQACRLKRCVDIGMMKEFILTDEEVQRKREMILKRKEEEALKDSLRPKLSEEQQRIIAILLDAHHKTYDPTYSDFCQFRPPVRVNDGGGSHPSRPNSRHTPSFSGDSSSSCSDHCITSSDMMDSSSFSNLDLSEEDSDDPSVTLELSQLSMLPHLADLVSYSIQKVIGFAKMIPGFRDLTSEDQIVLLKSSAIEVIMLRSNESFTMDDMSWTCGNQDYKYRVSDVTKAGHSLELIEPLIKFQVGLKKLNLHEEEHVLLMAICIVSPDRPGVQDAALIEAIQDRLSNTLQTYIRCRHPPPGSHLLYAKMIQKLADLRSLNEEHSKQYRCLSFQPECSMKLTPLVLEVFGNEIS
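Compounds are added to VDR with labelled SRC2-3 coactivator peptide and held 2 h at room temperature. Inhibition of the VDR–peptide interaction is then read as a change in fluorescence polarization.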
An asterisk follows results filed as active; ? = inconclusive; & = joins results of further samples. % is scaled to controls: 0 for no effect and ±100 for the full control effect; potency is read from the fitted curve at half-maximal effect. A portion of the library, so the mix of outcomes need not match the whole.

| SMILES | VDR inhibitor |
| --- | --- |
| O=C(NCCc1cccs1)c1ccc(Cn2c(SCc3cccc(F)c3)nc3cccnc32)cc1 | 2% |
| O=C(CN1CCCCC1)N/N=C/c1ccccc1Br | -1% |
| CC(=O)Nc1ccc(C(=O)/C=C/c2ccc[nH]2)cc1 | 5% |
| O=C(Nc1cccc(C(=O)O)c1)/C(=C\c1ccc2c(c1)OCO2)NC(=O)c1ccc(Br)o1 | 22% |
| Nc1[nH]n2c(=O)c3c(nc2c1N=Nc1ccc(Cl)cc1)CCCC3 | -13% |
| Nc1ncc(Br)cc1S(=O)(=O)NCCC(=O)NCc1ccc(F)cc1 | -14% |
| CCc1ccc(NC(=O)C2=C(C)C(=O)OC23CCCCC3)cc1 | -15% |
| COc1ccc(NC(=S)NCCc2ccc(S(N)(=O)=O)cc2)c(OC)c1 | 23% |
| COc1ccccc1-c1ccc2ncnc(NCc3cnc(C)cn3)c2c1 | -13% |
| COC(=O)c1cn(NC(=O)c2cc([N+](=O)[O-])ccc2F)c(=O)c2ccccc12 | -13% |
| COc1ccc(C(CCN2CCCC(C)C2)c2c(OC)cc(OC)c3c(-c4ccccc4)cc(=O)oc23)cc1 (configuration not stated) | -24%&-7% |
| CCN(CC)c1ccc(NC(=O)/C=C/c2cc(Br)ccc2OC)cc1 | -22% |
| Cc1ccccc1-c1noc(-c2ccccc2OCC(=O)Nc2ccccc2[N+](=O)[O-])n1 | 11% |
| CCOc1ccc(S(=O)(=O)N2CCCCC2)cc1NC(=O)CC1OC(=O)c2ccccc21 (configuration not stated) | 9% |
| Cc1cc(NC(=O)CN(C)CCOc2ccccc2)ccc1Br | -4% |
| CC(=O)N1CCC[C@@]2(CCN(c3ncccn3)C2)C1 | -2% |
| Cc1ccc(-c2nc3ncccc3o2)cc1NC(=S)NC(=O)c1ccco1 | -3% |
| Cc1ccc(C(=O)CC(C(=O)O)P(=O)(c2ccccc2)c2ccccc2)cc1 (configuration not stated) | 11% |
| Cc1cc(C(=O)Nc2ccccc2N2CCOCC2)c(C)o1 | 8% |
| Cc1ccc(NC(=O)CCOc2ccccc2C)cc1C | -10% |
| CCOCCCNC(=O)CCc1nnc2ccc(N3CCN(c4cccc(OC)c4)CC3)nn12 | 5% |
| N#CC1=C(N)N(c2ncn[nH]2)C2=C(C(=O)CCC2)C1c1ccccc1 (configuration not stated) | 14% |
| COc1cccc(C(=O)N2CCn3c2nc2ccccc23)c1 | 2% |
| Cc1nnc(NC(=O)CC(C)c2ccccc2)s1 (configuration not stated) | 11% |
| Cc1ccc2c(CC(=O)NC3CCS(=O)(=O)C3)coc2c1C (configuration not stated) | 4% |
| COc1cccc(NC(=O)CN2C(=O)CC(c3ccco3)Sc3ccccc32)c1 (configuration not stated) | -12% |
| CCc1nc2c(C#N)c(-c3ccc(Cl)cc3)ccn2n1 | 0% |
| Fc1ccc(-c2noc3ncnc(Nc4ccc(F)cc4F)c23)cc1 | 3% |
| CCCS(=O)(=O)N1CCN(Cc2ccc3c(c2)c2ccccc2n3CC)CC1 | -10% |
| CC(C)OC(=O)c1cc(NC(=S)Nc2ccc([N+](=O)[O-])cc2)cc(C(=O)OC(C)C)c1 | 18% |
| O=C(NC(=S)Nc1ccc(Cc2ccncc2)cc1)c1ccccc1 | -32% |
| Cc1ccc(NC(=S)N2CCN(c3ccccc3F)CC2)c(C)c1 | 3% |

In a second layout: 3 of the compounds above.
VDR inhibitor,compound
3%,Fc1ccc(-c2noc3ncnc(Nc4ccc(F)cc4F)c23)cc1
-12%,COc1cccc(NC(=O)CN2C(=O)CC(c3ccco3)Sc3ccccc32)c1 (configuration not stated)
-10%,CCCS(=O)(=O)N1CCN(Cc2ccc3c(c2)c2ccccc2n3CC)CC1

(cont.)
| SMILES | VDR inhibitor |
| --- | --- |
| Cc1cccc(N(Cc2cc3ccccc3[nH]c2=O)C(=O)c2cccs2)c1 | -4% |
| Oc1c(Cl)cc(CN2CCOCC2)c2cccnc12 | ? |
| COc1ccccc1NC(=O)CSc1ccc(-c2sc(C)nc2C)nn1 | 4% |
| O=C(O)C(NS(=O)(=O)c1ccccc1)C(O)c1ccccc1 (configuration not stated) | -9% |
| CCc1cccc(C)c1NS(=O)(=O)c1ccc2c(c1)CC(C)N2C(=O)C1CC1 (configuration not stated) | 6% |
| CCOc1ccccc1NC(=O)CCC(=O)Nc1ccccc1OCC | 3% |
| COC(=O)C1=C(C)n2cnnc2NC1c1ccc(Cl)cc1 (configuration not stated) | 0% |
| CCN(CC)S(=O)(=O)c1ccc(OC)c(NC(=S)Nc2cccc(C)c2C)c1 | ? |

Part of the list above, as labelled records:
O=C(O)C(NS(=O)(=O)c1ccccc1)C(O)c1ccccc1 (configuration not stated)
  VDR inhibitor: -9%
CCc1cccc(C)c1NS(=O)(=O)c1ccc2c(c1)CC(C)N2C(=O)C1CC1 (configuration not stated)
  VDR inhibitor: 6%
CCOc1ccccc1NC(=O)CCC(=O)Nc1ccccc1OCC
  VDR inhibitor: 3%
COC(=O)C1=C(C)n2cnnc2NC1c1ccc(Cl)cc1 (configuration not stated)
  VDR inhibitor: 0%

The listing continues.
| SMILES | VDR inhibitor |
| --- | --- |
| O=CN1CCC(=O)N(Cc2ccccc2)c2ccccc21 | 5% |
| CNS(=O)(=O)c1cccc(C(=O)NC2CCCc3ccccc32)c1 (configuration not stated) | -3% |
| CCc1ccc(NC(=O)N2CCN(c3nnc(C)c4c(C)n(-c5ccc(Cl)cc5)nc34)CC2)cc1 | 13% |
| CCc1ccc(-c2nnn(CC(=O)N(C3CCCC3)C3CCS(=O)(=O)C3)n2)cc1 (configuration not stated) | 21% |
| Cc1ccc(S(=O)(=O)N(Cc2ccc(C(F)(F)F)cc2)C(=O)N2CCN(C)CC2)cc1 | -11% |
| Cc1ccsc1/C=N/NC(=O)C(O)c1ccccc1 (configuration not stated) | 3% |
| CC(NC(=O)c1ccc(N2CCCC2=O)cc1)c1ccccc1 (configuration not stated) | 0% |
| CC(C)c1ccc(NC(=O)COc2nnc(-c3cccs3)c(-c3cccs3)n2)cc1 | 22% |
| CC1(COc2ccc(CC3SC(=O)NC3=O)cc2)CCCCC1 (configuration not stated) | -5%&4%&11%&11% |
| O=C(O)CCC(=O)N1N=C(c2ccccc2)CC1c1ccc2c(c1)OCO2 (configuration not stated) | -2% |
| Cc1ccc(-c2nnc(-c3ccncc3)n2-c2ccc(C)cc2)cc1 | 9% |
| CCCCN(C)CCCNC(=O)c1cc(=O)[nH]c2ccc(S(=O)(=O)N3CCCCC3)cc12 | 8% |
| CCC1CCCCN1CCN1C(=O)C2C(C(=O)Nc3ccc(OC)cc3)C3C=CC2(O3)C1C(=O)NC1CCCCC1 (configuration not stated) | -10% |
| Cn1c(=O)c2c(n3ncnc13)NC(=O)CC2c1cccc(F)c1 (configuration not stated) | -2% |
| CC1(C)CC(=O)C(C2c3ccccc3Oc3ccccc32)C(=O)C1 | 1% |
| CCN1CCCC(NC(=O)c2scc3c2CCCC3)C1 (configuration not stated) | -7% |
| Cc1sc(NC(=O)C2C3CCC(C3)C2C(=O)O)c(C(N)=O)c1-c1ccc(C(C)(C)C)cc1 (configuration not stated) | -21% |
| C#CCNC(=O)C1=C[C@@H](C2CCCCC2)[C@H](CCCO)[C@@H](OCC)O1 | 2% |
| CC(=O)c1ccc(N2CCN(S(=O)(=O)c3ccc4c(c3)NC(=O)CO4)CC2)cc1 | -4% |
| CCC(=O)Nc1nc(C)nc(C)c1C(C)=O | -11% |
| Cc1ccccc1C(=O)N/C(=C/c1ccc(-c2cccnc2Cl)o1)C(=O)NCCCN1CCN(C)CC1 | -10% |
| COc1ccc(N2CC(C(=O)Nc3ccc(N4CCOCC4)cc3)CC2=O)cc1 (configuration not stated) | 3% |
| COc1cc(OC)c(C(=O)Nc2ncn[nH]2)cc1OC | 1% |
| COc1cccc(-n2nnc3c(=O)n(CC(=O)N4CCCCC4)cnc32)c1 | 11% |
| CC(Oc1cccc(Br)c1)C(=O)NNC(=O)CCNC(=O)c1ccccc1Cl (configuration not stated) | -4% |
| CCOc1nc(-c2ccccc2)ncc1Oc1ccccc1 | -2% |
| CC(=O)c1c(C)[nH]c(C(=O)CSc2ncnc3sc(-c4ccccc4)cc23)c1C | -8% |
| COc1ccc(CCNC(=O)CSc2c[nH]c3ccccc23)cc1OC | -1% |
| O=C(NCc1cccs1)c1cnc2sccn2c1=O | 10% |
| CCOc1ccc(NC(=O)CN(c2ccc([N+](=O)[O-])cc2)S(=O)(=O)c2ccccc2)cc1 | -10% |
| COc1ccc(NC(=O)c2ccco2)cc1S(=O)(=O)N1CCCCC1 | -19% |
| CCn1c(SCC(=O)Nc2sccc2C(N)=O)nnc1C1CC1 | 17% |
| CCOC(=O)CSc1nnc(-c2ccc(Cl)cc2Cl)o1 | 6% |
| Cc1cccc(NC(=O)CCN2CCN(C/C=C/c3ccccc3)CC2)c1 | 18% |
| CCOP(=O)(OCC)C(NC(=O)Nc1ccccc1)c1ccccc1 (configuration not stated) | -14% |
| COc1ccc(NC(=O)CSc2nc(N)c(C#N)cc2C#N)cc1 | -3% |
| CCCSc1nc(-c2ccccc2)cc(C(F)(F)F)c1C#N | 6% |
| CCCN(CC1CC1)C(=S)NC(=O)c1ccc(S(=O)(=O)N2CCOCC2)cc1 | 13% |
| COc1ccc(C(=O)Nc2ccc3ccccc3c2)c(OC)c1 | -19% |
| COc1ccc(C(=O)NC(C)c2nnc(SCC(=O)Nc3nc4ccccc4s3)n2C)cc1 (configuration not stated) | -13% |
| CCOC(=O)CNC(=O)CSc1nnc(Cn2cnc3ccccc32)n1C | -1% |
| O=C(c1sc2ccccc2c1Cl)N1CCN(c2ccc(F)cc2)CC1 | -4% |
| C/C(=N/NC(=O)c1ccncc1)c1c[nH]c2ccccc12 | -27% |
| O=C(O)CCn1cc(/C=C\C(=O)c2ccc(Cl)cc2)c(-c2cccc(Br)c2)n1 | 50µM* |
| CN(c1cccc(NC(=O)CN(c2cccc(Cl)c2)S(=O)(=O)c2ccccc2)c1)S(C)(=O)=O | -10% |
| CCN(C(=S)Nc1ccc(Oc2ccccc2)cc1)c1ccccc1 | -6% |
| COc1ccc(CNc2ncnc3ccc(-c4ccc(C(=O)N(C)C)cc4)cc23)c(OC)c1 | -6% |
| Cc1ccc(C(C)C)c(OCC(=O)OCC(=O)NC2CCS(=O)(=O)C2)c1 (configuration not stated) | -23% |
| COc1ccc(OC)c(NC(=O)/C=C/c2ccc(C)o2)c1 | -18% |
| CCN(CC)C(=O)Cn1cnc2sc(C(=O)N3CCN(Cc4ccc5c(c4)OCO5)CC3)c(C)c2c1=O | -1% |
| CC(C)NC(=O)c1ccc(C2SCC(=O)N2Cc2ccccc2)cc1 (configuration not stated) | -8% |
| O=C(Nc1ccc(OCc2ccccc2)cc1)Nc1ccccc1C(=O)NCCCN1CCOCC1 | 4% |
| N#C/C(=C\c1ccccc1Br)C(=O)NC1CC1 | ? |
| Cc1ccc2nc(-c3ccccn3)cc(C(=O)Nc3ccc(S(=O)(=O)N4CCOCC4)cc3)c2c1 | 13% |
| Cc1cc2n(n1)C(c1sccc1C)Nc1c(C)cccc1-2 (configuration not stated) | -14% |
| O=C1/C(=C\c2cccnc2)CCc2ccccc21 | ? |

(listing goes on)
| SMILES | VDR inhibitor |
| --- | --- |
| Cc1cc(C(=O)N/N=C/c2cc(Br)ccc2OC(=O)c2ccccc2Cl)n[nH]1 | -24% |
| NC(=O)c1ccc(NC(=O)Cc2ccc(S(=O)(=O)N3CCCCC3)cc2)cc1 | -16% |
| CCN(CC)C(=O)Cn1cc(C(=O)C(=O)N2CCN(Cc3ccc4c(c3)OCO4)CC2)c2ccccc21 | 3% |
| O=C(NCc1ccccc1)c1cccc(COc2cc(Cl)ccc2Cl)c1 | -24% |
| O=C(N/N=C\c1c(O)ccc2ccccc12)c1ccc(S(=O)(=O)N2CCCCC2)cc1 | 7% |
| CSCC[C@H](NC(=O)c1cc2c([nH]c3ccccc32)c(-c2ccccc2)n1)C(=O)O | -5% |
| CCCCOc1ccc(C(=O)NCCc2sc(-c3ccc(OC)c(OC)c3)nc2C)cc1 | 9% |
| O=C(C1CCCO1)N1CCC(c2nc3ccccc3[nH]2)CC1 (configuration not stated) | 1% |
| Cc1ccc(OCC(=O)Nc2ccncc2)c(C)c1 | -8% |
| COc1cc(/C=C/C(=O)OCC(=O)Nc2cc(S(=O)(=O)N(C)C)ccc2Cl)ccc1O | 15% |
| O=C(C1CCC(=O)N(C2CCCC2)C1)N1CCN(Cc2cccc(F)c2)CC1 (configuration not stated) | 1% |
| O=C1CC(c2ccco2)CC(O)=C1C=NCC1NCCc2ccccc21 (configuration not stated) | 5% |
| COc1cccc(CNC(=O)CCNS(=O)(=O)c2ccc3c(c2)CCCC(=O)N3)c1 | 17% |
| Cc1c(C(=O)N2CCN(C)CC2)oc2c1C(=O)CC(C)(C)C2 | 7% |
| Cc1noc(C)c1-c1nccc(NCc2cccs2)n1 | -13% |
| Cc1cccc(NC(=O)c2cc(S(=O)(=O)N3CCOCC3)cn2C)c1C | -11% |
| Cc1cc(C)c2oc(-c3ccc(C)c(NC(=S)NC(=O)/C=C/c4ccco4)c3)nc2c1 | 9% |
| CCc1ccc(NC(=O)C(=O)NNC(=O)c2cccs2)cc1 | -4% |
| Cn1cccc1/C=C1\SC(=S)N(NC(=O)c2ccc(F)cc2)C1=O | 23% |
| COc1ccc(/C=C2/CSC/C(=C/c3ccc(OC)c(OC)c3)C2=O)cc1OC | ? |
| Cn1nc(-c2ccccc2)c2cc([N+](=O)[O-])ccc21 | -5% |
| CCCc1nc2c(sc3nc4c(cc32)COC(C)(C)C4)c(=O)n1CCN(CC)CC | -2% |
| CC(C)=CCc1ccc(O)c(=O)cc1C(C)C | -10% |
| Cc1ccc(C(=O)N/C(=C\c2sccc2C)C(=O)NCc2ccco2)cc1 | -11% |
| CCc1cccc(OCCOC(=O)CNS(=O)(=O)c2ccc(NC(C)=O)cc2)c1 | -9% |
| Cc1nc2cncnc2n(Cc2ccccc2Cl)c1=O | ? |
| COc1cc(/C=C2/S/C(=N/S(=O)(=O)Cc3ccccc3)NC2=O)c([N+](=O)[O-])cc1OC | -13% |
| CCCn1c(SC(C)C(=O)NC2CCCC2)n[nH]c1=O (configuration not stated) | -6% |

Bioassay records from PubChem BioAssay.
